Screens: PubChem, several laboratories
UCH37 inh = inhibitors of human UCH37 deubiquitinase, primary screen, biochemical, Ub-AMC cleavage, fluorescence; purified proteasome/UCH37; 330,000 compounds, 0.33% hits; inhibition, % (test concentration not listed); Ubiquitin carboxyl-terminal hydrolase isozyme L5 (Homo sapiens), Q9Y5K5; AID 588478, 2011;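 active means mean of two replicates above 20%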;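 further: 0% = compound-free wells with enzyme and 100% = wells lacking proteasome; stock transfer was 100 nL into about 20 µL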
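Material: human UCH37 enzyme supplied as purified proteasome complex. Measure: % inhibition of Ub-AMC cleavage fluorescence. Medium: pH 7.4 Tris-HCl (50 mM) with ovalbumin, ATP-MgCl2, DTT. Times: 30 min preincubation with enzyme, 25 min cleavage at room temperature. Detection: AMC fluorescence intensity at 355/460 nm.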
FGF22 binding = binders of human FGF22 protein, primary screen, FGF22 synaptogenesis inhibitor project, biophysical, thermal shift, single point. recombinant FGF22 thermal shift, SYPRO orange fluorescence; percent of sucrose octasulfate shift, DMSO zero. calls only at 9.99 µM. 340,000 compounds, 1.5% hits. AID 651658, 2012;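 active means melting point raised past a set limit in the mean and every replicate; three in four hits are not shown here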
Target sequence (Q9HCT0 whole entry, looked up): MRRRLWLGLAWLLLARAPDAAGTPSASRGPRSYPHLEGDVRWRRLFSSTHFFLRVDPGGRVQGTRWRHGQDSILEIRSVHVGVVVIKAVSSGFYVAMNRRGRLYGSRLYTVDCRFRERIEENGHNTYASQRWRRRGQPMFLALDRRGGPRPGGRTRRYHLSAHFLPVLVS
ALR H2O2 inh = inhibitors of human ALR sulfhydryl oxidase, primary screen, biochemical, H2O2 detection, HRP-luminol luminescence, single point; 290,000 compounds, 3.8% hits; inhibition, % (test concentration not listed); purified ALR, DTT oxidation; AID 485317, 2010; FAD-linked sulfhydryl oxidase ALR (Homo sapiens), P55789;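 active means mean and each replicate at 75% or more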;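 further: stock transfer was 7.5 nL into about 7.5 µL; 0% = neutral wells and 100% = wells with inactivated enzyme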
Target sequence (P55789 whole entry, looked up): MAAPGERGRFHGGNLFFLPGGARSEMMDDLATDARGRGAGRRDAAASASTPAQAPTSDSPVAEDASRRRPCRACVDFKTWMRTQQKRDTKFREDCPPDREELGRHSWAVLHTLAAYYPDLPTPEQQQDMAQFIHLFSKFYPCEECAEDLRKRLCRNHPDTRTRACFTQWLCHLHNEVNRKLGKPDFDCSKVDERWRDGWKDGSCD
B2AR ag = beta2AR agonists driving receptor internalization, primary screen, cell-based, FAP fluorogen, flow cytometry | Am2.2-beta2AR cells; reference of the scale not given here | Beta-2 adrenergic receptor (Homo sapiens), P07550 | response, % (no concentration beside the values) | AID 504454, 2011 | 340,000 compounds, 0.43% hits;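 active means response above a set limit, near 3 SD of response in nonfluorescent compounds, cut at about 42% in these data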;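 further: stock transfer was 100 nL into about 11 µL; a reference agonist was the positive control; negative values mostly stem from fluorescent compounds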
LANA-H2A inh = blockers of LANA interaction with H2A/H2B – biochemical, FP readout, HTS, primary screen; Protein LANA1 (Human herpesvirus 8 type P (isolate GK18)), Q9QR71; cell-free LANA-H2A/H2B peptide, fluorescence polarization; inhibition, % (concentration not given with the values); 320,000 compounds, 0.6% hits; in the data active means inhibition mostly above about 10%, no sharp cut-off; inactive means mostly below about 6.7%;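 further: stock transfer was 7.5 nL into about 10 µL; 0% = median of vehicle wells and 100% = median of positive control wells; one replicate is shown; the record names a cut of 25% in any replicate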
HNF4A DNA FP = change in binding of human HNF4A to DNA, primary screen, biochemical, fluorescence polarization, FITC-DNA. Hepatocyte nuclear factor 4-alpha (Homo sapiens), P41235. 1 h. activity change, % at 10 µM. 360,000 compounds, 0.3% hits. AID 1224865, 2016; in the data active means activity change above about 30%, passing the limit was not always enough;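 further: controls were the assay level and a saturating level of protein; the project sought stronger binding though the title names inhibitors; some compounds called inactive have numbers as strong as hits; positive values seem to mean higher polarization but the record does not say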
Target sequence (P41235 whole entry, looked up): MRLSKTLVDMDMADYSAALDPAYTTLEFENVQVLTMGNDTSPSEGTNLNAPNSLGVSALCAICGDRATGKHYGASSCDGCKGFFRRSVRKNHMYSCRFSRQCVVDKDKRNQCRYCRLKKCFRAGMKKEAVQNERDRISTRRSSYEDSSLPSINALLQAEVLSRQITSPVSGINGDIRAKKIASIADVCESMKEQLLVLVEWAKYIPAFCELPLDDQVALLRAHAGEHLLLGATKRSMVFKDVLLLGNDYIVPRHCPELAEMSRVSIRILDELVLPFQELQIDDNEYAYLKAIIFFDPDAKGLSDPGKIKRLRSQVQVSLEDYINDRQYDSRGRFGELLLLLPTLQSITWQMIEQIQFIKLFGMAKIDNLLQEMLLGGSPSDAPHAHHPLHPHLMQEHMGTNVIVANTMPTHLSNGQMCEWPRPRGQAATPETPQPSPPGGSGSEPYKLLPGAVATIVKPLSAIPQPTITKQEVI
Ecoli growth = E. coli growth inhibition, primary screen, OD600; OD600 absorbance (concentration not given with the values); Escherichia coli growth, 23 h; stronger effect = lower value; 330,000 compounds, 0.21% hits;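 active means OD600 absorbance below the run mean of sample wells minus 3.6 SD, in any replicate, cut at about 0.56 in these data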;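 further: stock transfer was 300 nL into about 60 µL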
Numbers without * were called inactive; i = inactive; nt = no result given.

compound	UCH37 inh	FGF22 binding	ALR H2O2 inh	B2AR ag	LANA-H2A inh	HNF4A DNA FP	Ecoli growth
O=C(CCCOc1ccc(Cl)cc1Cl)N/N=C/c1ccco1	nt	i	3	-2	-4.5	1.4	nt
CCCCCCC(=O)Nc1ccc(Cl)cn1	-1.5	nt	2	-1	-12	11	0.65
Cc1ccc2cc3cc(C(=O)NCc4ccc5c(c4)OCO5)oc3nc2c1	-37	nt	nt	1	nt	5.7	0.7
COc1ccc(CCNC(=O)c2ccc(OC)c(OC)c2)cc1OC	nt	i	3	6	2.6	-2.6	nt
CCn1c(SCC(=O)Nc2ccc(OC)cc2)nc2nc3c(cc2c1=O)COC(C)(C)C3	0.2	i	nt	4	2.8	3.4	0.63
CC(C)CC(=O)Nc1ccc(C(=O)NN2C(=O)c3ccccc3C2=O)cc1	nt	nt	0	-7	-2.0	3.2	nt
CCOc1ccc(/C=C(\C#N)C(=O)c2c(C)[nH]c3ccccc23)cc1OC	4.5	i	23	-1	-4.1	-0.9	0.66
Cc1ccc(C(=O)C2CCN(CC(=O)Nc3ccc(N(C)C)cc3)CC2)cc1	-0.5	nt	98*	0	2.6	1.6	0.65
Cc1ccc2cc(CN(CC(C)C)S(=O)(=O)c3cccc4nonc34)c(=O)[nH]c2c1	-0.1	i	-5	8	4.0	12	0.71
Cc1cc(C)n(C(=O)CCCCCCCCC(=O)n2nc(C)cc2C)n1	0.1	nt	-6	15	0.3	3.3	0.67
COC(=O)[C@H](CC(C)C)N(Cc1ccccc1)S(=O)(=O)N(Cc1ccc(OC)cc1)[C@@H](CC(C)C)C(=O)OC	3.8	i	2	6	-1.5	-1.6	nt
O=C(O)c1cc(S(=O)(=O)NCCN2CCNC2=O)ccc1O	-1.5	i	-12	4	-2.2	2.6	0.69
Cc1nc2ncnn2c(C)c1Cc1cccc(F)c1	0.5	i	nt	1	5.1	-0.7	0.65
COc1ccc(/C(N)=N/OC(=O)c2ccc(C)c([N+](=O)[O-])c2)cc1OC	7.0	nt	-3	-3	2.3	0.6	nt
COc1cc(/C=N/NC(=O)C(=O)N2CCCC2)ccc1O	nt	nt	nt	1	-4.3	-5.0	nt
CC(=O)OCC(=O)C1(O)CCC2C3CCC4=CC(=O)CCC4(C)C3(Cl)C(O)CC21C (stereo unspecified)	2.9	i	nt	-12	nt	-5.0	0.72
Cc1[nH]c2ccccc2c1C(=O)C(=O)N1CCCc2ccccc21	2.0	i	nt	5	-6.8	2.5	0.72
O=S(=O)(/C=C/c1ccccc1)Oc1ccccc1	0.4	i	7	7	-2.8	0.4	0.72
CC(=O)N1CCN(S(=O)(=O)c2ccc3c(c2)CCC(=O)N3)CC1	6.0	i	3	1	i	1.3	0.66
Clc1ccccc1-c1nnc2sc(C3COc4ccccc4O3)nn12 (stereo unspecified)	1.4	nt	-4	3	2.3	-1.4	0.66
CC(C)c1ccccc1OCCCN1CCCC1	0.3	i	-4	11	1.4	-1.0	0.62
CC12CCC(=O)N1C(C(=O)Nc1nc(-c3ccc(F)cc3)cs1)CS2 (stereo unspecified)	-0.8	i	1	1	5.4	3.0	0.61
Cc1[nH]c2ccccc2c1C(=O)CSc1ncn[nH]1	0.5	nt	-4	6	-1.3	0.4	0.69
Clc1ccc2nc(-c3ccccc3)nc(C(Cl)Cl)c2c1	4.2	i	nt	50*	nt	-0.1	0.67
COc1ccc2[nH]c(=O)c(CN(Cc3cccnc3)Cc3nnnn3CC3CCCO3)cc2c1 (stereo unspecified)	-49	i	-4	-6	0.8	-2.0	0.67

The list goes on.
compound	UCH37 inh	FGF22 binding	ALR H2O2 inh	B2AR ag	LANA-H2A inh	HNF4A DNA FP	Ecoli growth
CC(Oc1ccccc1Cl)C(=O)Nc1ccc(S(=O)(=O)Nc2nccs2)cc1 (stereo unspecified)	-0.1	i	nt	1	nt	-0.1	0.66
Cc1csc(SC(C)C(=O)NCC2CCCO2)n1 (stereo unspecified)	5.0	i	-4	-5	2.3	-1.6	0.69
Oc1c(C(Nc2ccccn2)c2ccccn2)ccc2cccnc12 (stereo unspecified)	-1.6	nt	25	2	-4.0	-0.1	0.66
CCOc1ccccc1C(=O)NCC(=O)Nc1ncccc1C	nt	nt	8	4	3.1	1.4	nt
O=C(CSc1nc(=O)n(Cc2ccccn2)c2c1CCC2)Nc1ccc(F)cc1F	5.6	i	25	-2	0.4	-3.2	0.68
Cc1nn(C(C)C)c(C)c1CN1CCCC(C(=O)c2cccc(OC(C)C)c2)C1 (stereo unspecified)	0.0	i	5	6	-4.1	1.5	0.69
O=C(NCc1ccco1)c1noc2c1CCCC2	3.0	nt	0	-2	0.9	-0.7	0.65
CC(OC(=O)C1CCN(S(=O)(=O)c2ccc3c(c2)OCCO3)CC1)C(=O)N(C)c1ccccc1 (stereo unspecified)	5.6	i	nt	-11	-3.1	0.6	0.66
O=C1c2ccccc2C(=O)N1CCCn1nnc(-c2ccc(N3CCOCC3)cc2)n1	2.1	nt	25	-2	4.4	0.2	0.66
COC(=O)C(C)Sc1ccc2nnc(CCNS(=O)(=O)c3ccccc3)n2n1 (stereo unspecified)	-0.9	i	-20	3	1.9	2.1	0.67
O=C1OCCN1C(=O)[C@H]1[C@H](c2ccccc2)C(c2ccccc2)=NN1c1ccccc1	-68	i	nt	1	nt	0.5	0.72
O=C(C[C@H]1C[C@H](C(=O)N2CCCCC2)[C@@]2(CCc3ccccc3)c3[nH]c4cc(-c5ccco5)ccc4c3CCN2C1=O)NCCN1CCOCC1	-11	i	nt	42*	nt	17	0.64
CCCc1cc(C(=O)O)c2ccccc2n1	2.0	nt	-1	2	2.8	-1.8	0.72
Cc1ccc(S(=O)(=O)N(Cc2ccccc2)c2ccccn2)cc1[N+](=O)[O-]	1.5	i	-5	-7	-0.2	0.9	0.67
O=C(Nc1ccc(COc2ccccc2)cc1)c1cccc([N+](=O)[O-])c1	3.0	i	65	4	-9.9	0.5	0.77
CCc1c(C)c2c(C)[nH]nc2oc1=O	-3.8	nt	-3	0	-0.9	0.0	0.69
CC1Oc2ccccc2N(Cc2cccc(F)c2)C1=O (stereo unspecified)	3.1	i	-10	3	-3.5	1.0	0.69
O=C(O)CCSC1CC(=O)N(c2ccccc2)C1=O (stereo unspecified)	-1.4	i	nt	-3	-6.4	0.9	0.64
O=C(Nc1ccccc1C(=O)O)c1cccc(NC(=O)c2ccccc2Br)c1	-2.4	i	nt	-2	1.1	0.3	0.69
CC(=O)N1c2ccc(S(=O)(=O)N3CCCCC3)cc2CC1C(=O)NCc1ccc(N(C)C)cc1 (stereo unspecified)	2.6	i	34	7	0.9	-1.8	0.7
O=C(CNC(=O)c1cccc(F)c1)N/N=C/c1cc(Br)ccc1OCc1ccccc1	nt	i	-2	6	6.0	0.2	nt
COc1ccccc1C(=O)NC(CCSC)C(=O)NCC(c1cccs1)N(C)C (stereo unspecified)	-1.2	i	-1	-5	2.5	0.4	0.71
O=C(Nc1ccccc1Br)C1CCN(S(=O)(=O)c2cccs2)CC1	-1.3	i	nt	-7	-10	2.5	0.69
CCCCc1cc(=O)oc2cc(C)cc(OCC(=O)N[C@@H](CSCc3ccccc3)C(=O)O)c12	-51	i	16	-18	2.9	-2.6	0.78
COc1ccccc1NC(=O)c1cnc(SCC(=O)NCC2CCCO2)n(C)c1=O (stereo unspecified)	-79	i	39	5	-8.0	-0.5	0.7

The results go on:
compound	UCH37 inh	FGF22 binding	ALR H2O2 inh	B2AR ag	LANA-H2A inh	HNF4A DNA FP	Ecoli growth
COc1ccc(NC(=O)c2cc(S(=O)(=O)N3CCCCC3)c[nH]2)cc1	6.5	i	-4	4	-0.4	3.0	0.75
O=C(N/N=C/C=C\c1ccc([N+](=O)[O-])cc1)c1cccnc1	nt	i	nt	4	1.7	1.2	nt
Clc1ccccc1OCCn1ccnc1	6.6	i	-25	-13	2.1	2.9	0.7
CC/C(=N\O)c1ccc(OC)c(OC)c1	nt	nt	1	-10	-2.1	3.0	nt
Cc1ccc(C(=O)OCC(=O)N2CCCC2)cc1	0.4	i	nt	2	1.1	-2.8	0.69
O=C(COc1ccc(Cl)cc1Br)NC1CC1	0.1	i	5	6	3.9	-0.8	0.64
COCc1c(C(=O)NCCc2ccc(OC(F)F)cc2)oc2ccccc12	3.8	i	-6	-5	-2.2	3.4	0.67
Cc1cccc2cc(CN(CCCO)C(=O)Nc3ccc(Cl)cc3)c(=O)[nH]c12	-6.7	nt	nt	-6	nt	-1.1	0.76
Cn1c(CNC(=O)c2ccco2)nnc1SCC(=O)c1ccc(Br)cc1	-1.8	i	nt	-6	-4.6	-0.8	0.65
CCOc1ccccc1N(C)C(=O)c1cn(C)c(=O)c2ccccc12	0.5	i	-5	-2	4.9	0.9	0.65
O=C(Cc1ccc(Cl)c(Cl)c1)Nc1ccc(SC(F)F)cc1	4.4	i	5	9	1.6	-7.2	0.66
CC(C(=O)Nc1ccc(C#N)cc1)N(C)Cc1cccs1 (stereo unspecified)	5.0	i	-7	2	-1.8	2.7	0.65
O=C1C=CC(=O)N1CCNc1ncc(C(F)(F)F)cc1Cl	1.2	i	nt	69*	nt	2.9	0.64
O=C(N/C(=C/c1ccc(Br)cc1)C(=O)N1CCCC1)c1ccccc1F	1.8	i	nt	-4	2.4	0.7	0.68
CCNC(=S)N/N=C(\C)c1ccc2ccccc2c1OC(F)F	nt	i	nt	2	-4.7	0.3	nt
CC(NC(=O)COC(=O)c1cccs1)c1ccccc1 (stereo unspecified)	2.3	i	1	5	-3.5	-0.3	0.66
CCOc1ccc(-n2c(SCC(N)=O)nc3c([nH]c4ccccc43)c2=O)cc1	7.5	i	nt	-2	nt	-1.6	0.72
N#CC1=C2SCC(O)(c3ccccc3)N2C(=O)CC1c1cccs1 (stereo unspecified)	4.4	i	nt	28	nt	1.3	0.66

An excerpt from above in order of their number in ALR H2O2 inh, rising.
structure | ALR H2O2 inh
Clc1ccccc1OCCn1ccnc1 | -25
COCc1c(C(=O)NCCc2ccc(OC(F)F)cc2)oc2ccccc12 | -6
O=C(COc1ccc(Cl)cc1Br)NC1CC1 | 5

Only part of the results is shown; the hit share may differ from the screen's.
